Screens from PubChem.
Rango-impB inh – prevents formation of the Rango-importin beta complex; Q14974; Rango CFP/YFP FRET sensor + importin beta, 45 min; 340,000 compounds, 0.031% hits; Potency, µM (highest dose often 92.2 µM), without a hit: top-dose inhibition of complex formation; active = rising FRET ratio curve, often small or poorly fitted; inconclusive = mostly compound fluorescence or quenching in the first reads; inactive = flat curves in all reads;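 note: potency is the fitted concentration of half-maximal effect; 0% = DMSO wells and 100% = buffer wells lacking importin beta; nearly all actives have a fitted effect of over 15% in size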
Target sequence (Q14974 whole entry, looked up): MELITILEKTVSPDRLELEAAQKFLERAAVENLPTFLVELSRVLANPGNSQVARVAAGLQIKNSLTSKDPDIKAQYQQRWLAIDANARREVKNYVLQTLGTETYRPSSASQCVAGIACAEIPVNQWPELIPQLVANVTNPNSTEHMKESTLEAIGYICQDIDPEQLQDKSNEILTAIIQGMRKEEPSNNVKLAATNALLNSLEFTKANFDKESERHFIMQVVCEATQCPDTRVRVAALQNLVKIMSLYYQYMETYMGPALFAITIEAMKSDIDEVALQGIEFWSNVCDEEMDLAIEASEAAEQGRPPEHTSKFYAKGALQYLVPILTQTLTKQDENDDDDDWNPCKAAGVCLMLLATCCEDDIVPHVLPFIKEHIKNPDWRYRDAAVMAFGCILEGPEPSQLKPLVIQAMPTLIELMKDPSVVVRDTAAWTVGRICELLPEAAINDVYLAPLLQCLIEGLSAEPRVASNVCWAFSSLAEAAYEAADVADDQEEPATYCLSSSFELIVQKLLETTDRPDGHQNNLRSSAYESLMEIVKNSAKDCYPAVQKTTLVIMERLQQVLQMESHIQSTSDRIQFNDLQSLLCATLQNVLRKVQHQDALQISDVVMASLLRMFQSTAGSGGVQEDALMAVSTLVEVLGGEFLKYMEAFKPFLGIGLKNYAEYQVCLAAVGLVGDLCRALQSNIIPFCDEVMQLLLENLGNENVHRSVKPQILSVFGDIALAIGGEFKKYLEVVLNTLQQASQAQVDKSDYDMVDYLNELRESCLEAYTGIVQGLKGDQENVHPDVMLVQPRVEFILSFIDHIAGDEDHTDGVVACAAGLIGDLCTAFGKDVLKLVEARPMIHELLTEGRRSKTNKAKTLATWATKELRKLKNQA
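FRET biosensor Rango (snurportin 1 IBB between N-terminal EYFP and C-terminal Cerulean), 50 nM in PBS/1 mM DTT/0.02% Tween-20/0.1% BSA, preincubated 5 min RT with compound; 0.125 microM importin beta added, 45 min RT, CFP/YFP FRET ratio read.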
GLA inh pH 4.5 – alpha-galactosidase A (human) inhibition, pH 4.5. P06280. purified enzyme, 4-MU-alpha-Gal fluorescence, pH 4.5. activity change, negative = inhibition, % at 105 µM. 230,000 tested, under 10 active; inconclusive = small, poorly fitted or top-dose-only inhibition, or a rising curve; inactive = flat fitted curve, though single readings scatter; no compound was filed as active;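 note: 0% = full activity with enzyme and -100% = basal without enzyme; dose as in the result columns while the protocol names 77 µM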
Rango release inh – inhibition of RanGTP-driven Rango-importin beta dissociation; Potency, µM (titrated, usually from 46.1 µM), without a hit: at the top dose activity change, negative = inhibition; 340,000 compounds, 0.071% hits; O95149+P62826; Biochemical FRET Rango-importin beta, RanGTP-induced dissociation; active means falling FRET ratio curve, often poorly fitted, with flat reads before Ran was added; inconclusive means other falling curves, or compound fluorescence or quenching; inactive means flat or rising ratio curve;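 note: potency is the fitted concentration of half-maximal effect; % of control where 0% means no effect; nearly all actives have a fitted effect of over 45% in size; -100% = wells without RanGTP and RCC1; the record marks most hits as doubtful in a second field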
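Rango (0.1 uM)–importin beta (0.25 uM) complex; RanGTP-RCC1 trigger; 45 min RT; CFP/YFP FRET read.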
miR-21 FLuc – raises the signal of a miR-21 reporter | HeLa miR-21 FLuc reporter, luciferase, 48 h | Potency, µM (doses to about 38.3 µM), without a hit: at the top dose reporter change, positive = more light | 340,000 tested, under 10 active | AID 2288; active = well fitted rising curve with a large enough effect; inconclusive = small, poorly fitted or top-dose-only effect; inactive = no such curve, though single readings can be large or run the other way;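 note: % of control where 0% means no effect; miR-21 action dims this reporter so a rising signal means less miR-21 action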
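HeLa cells stably expressing CMV-driven firefly luciferase with a downstream miR-21 binding sequence, endogenously expressing miR-21, were treated with titrations (up to about 40uM final) for 48 hours at 37 degree Celsius. Luciferase luminescence was read after lysis.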
* hit, by the source's call; ? = inconclusive; / = no result given; & = joins results of further samples. Not all compounds are listed, so the mix of outcomes need not match the whole.

Order of values – Rango-impB inh	GLA inh pH 4.5	Rango release inh	miR-21 FLuc
> C[C@]12c3[nH]c4ccc(Cl)cc4c3CCN1C(=O)[C@@H](CC(=O)NCC13CC4CC(CC(C4)C1)C3)C[C@@H]2C(=O)N1CCCCC1
  -2.2%	/	-2.3%	/
> COc1ccc(/C=N\NC(=O)c2cc(OCC(F)(F)F)ccc2OCC(F)(F)F)cc1
  4.9%	-16.6	12.2%	8.3%
> CSc1ccccc1C(=O)N(CC1CCCO1)c1c(N)n(Cc2ccccc2)c(=O)[nH]c1=O (centres undefined)
  0.8%	/	13.5%	/
> Cc1ccc(NC(=O)c2cc(-c3ccccc3)nn2-c2ccccc2)cc1
  -0.3%	-4.9	-11.5%	-3.8%
> N=c1c(S(=O)(=O)c2ccccc2)cc2c(=O)n3ccccc3nc2n1C1CCCCC1
  2.2%	/	-7.2%	/
> COc1cc(C(=O)OC2CSCC2NC(=O)c2ccccc2)cc(OC)c1OC (centres undefined)
  1.6%	4.4	0.9%	-0.4%
> COc1ccc2cc(C(=O)Nc3ccc(O)cc3)sc(=O)c2c1OC
  ?	-16.3	1.8%	-27.3%
> COc1ccccc1CNC(=O)/C=C/c1ccc(S(=O)(=O)NCc2ccco2)cc1
  2.7%	-6.0	-6.3%	-17.3%
> N#Cc1nc(-c2ccc(F)cc2)oc1N1CCCCC1
  ?	/	-0.6%	-19.0%
> S=C(NCc1cccc(Cl)c1)NC1CCCCC1
  1.1%	-6.2	-5.6%	8.9%
> O=C(NCc1ccccn1)c1cccn1-c1ncc(C(F)(F)F)cc1Cl
  0.4%	0.2	7.2%	-1.0%
> O=c1[nH]n(Cc2ccccc2)c(=O)c2ccccc12
  -0.2%	-17.1	6.2%	-61.5%
> COc1ccccc1N(C)S(=O)(=O)c1ccc(Cl)c(C(=O)NCc2ccco2)c1
  0.4%	/	5.7%	/
> O=C(NCc1ccc2c(c1)OCO2)c1cc(-n2cnnc2)ccc1Cl
  -0.3%	5.4	10.4%	-1.1%
> COc1ccc(N(CC(=O)O)S(=O)(=O)c2ccc(C)cc2)cc1Cl
  1.6%	-8.2	-12.1%	2.2%
> CCCCN1CCN=C1Nc1ccccc1
  -0.5%	/	13.5%	0.0%
> Cc1cc2ccccc2n1CCNC(=O)C1CCCCC1
  ?	1.0	?	-2.4%
> O=C(CSc1ccc2nnc(CCNC(=O)c3ccccc3)n2n1)Nc1ccc(F)cc1F
  0.0%	/	5.0%	1.6%
> O=C(N/N=C/c1cccc(NC(=O)c2ccc(Cl)cc2)c1)c1cccc(O)c1
  1.7%	-6.8	5.6%	-26.0%
> Cc1ccccc1OCC(=O)OCC(=O)NCc1ccccc1Cl
  -3.8%	/	?	/
> COc1cccc(NC(=O)CN2C(=O)c3cccnc3Oc3ccc(Cl)cc32)c1
  -3.6%	/	-6.7%	-13.9%&-22.5%
> CN1C2CCC1CC(NC(=O)c1ccc(Cl)cc1)C2 (centres undefined)
  -0.5%	-17.6	-9.3%	-3.4%
> C=CCNC(=O)C1CCC(CNc2nc(=S)[nH]c3ccccc23)CC1 (centres undefined)
  -0.6%	/	19.5%	-3.1%
> CCCn1c(SCC(=O)NC(=O)NCc2ccccc2)n[nH]c1=O
  -1.4%	/	-18.7%	/
> C=CCN1C(=O)/C(=C2/Sc3ccccc3N2CC)SC1=S
  ?	/	?	-5.7%
> Nc1nc(SCC(=O)Nc2ccc(Br)cc2F)n[nH]1
  4.4%	-8.3	4.8%	-4.8%
> Cc1nn2c(-c3ccc(Cl)cc3)nnc2s1
  -2.5%	-2.6	10.0%	-14.8%
> c1ccc(CCNc2ccc3c(c2)Cc2ccccc2-3)nc1
  0.3%	/	-1.4%	/
> CCOC(=O)C1C2C=CC3(CN(C4CCCC4)C(=O)C13)O2 (centres undefined)
  -0.4%	1.6	-12.7%	-7.2%
> CC1(C)CC[C@]2(C(=O)O)CC[C@]3(C)C(=CCC4[C@@]5(C)CC[C@H](O)C(C)(C)C5CC[C@]43C)C2C1 (some centres undefined)
  4.6%	-8.9	-15.5%	-9.8%
> Cc1ccc(-c2ccc3nnc(SCC(N)=O)n3n2)cc1
  -1.7%	1.6	-1.6%	-8.0%
> Cc1cc(C)c(C2=NOC3C4CCC(C4)C23)c(C)c1 (centres undefined)
  -0.3%	-5.5	11.5%	3.3%
> CSc1nnc2c3cc(F)ccc3n(C)c2n1
  1.6%	/	0.5%	0.1%
> COC(=O)C(O)(CC(=O)Nc1ccc(OC)cc1)C(F)(F)F (centres undefined)
  -2.0%	3.3	-10.6%	-4.7%
> Cc1cc(C(=O)NC2CCCCC2)c(C)o1
  -0.1%	/	-16.0%	/
> CCOC(=O)N1CCN(S(=O)(=O)c2ccc(C(=O)N(CCCN(C)C)c3nc4c(F)cc(F)cc4s3)cc2)CC1
  -0.7%	/	-3.9%	/
> O=C(Nc1ccc(C(F)(F)F)cc1[N+](=O)[O-])O[C@H]1[C@H](Cc2ccccc2)NS(=O)(=O)[C@H]2C[C@@H]3C=C[C@]12O3
  -3.4%	/	-9.4%	/
> COC(=O)C(C(C)C)N1CCc2c(C)nc3c(C#N)cnn3c21 (centres undefined)
  2.7%	-10.7	-7.6%	-10.4%
> CCOC(=O)Cc1nnc(NC(=O)Nc2ccccc2)s1
  -0.5%	-2.4	4.3%	-12.3%
> O=C(COc1ccc(-c2nnco2)cc1)Nc1ccc(F)c(Cl)c1
  0.2%	/	-11.7%	/
> CCCOc1ccc(Cl)cc1CN1CCOCC1
  1.1%	4.1	5.1%	-6.8%
> CC(=O)c1ccc(S(=O)(=O)N2CCN(C(=O)CCC3CCCC3)CC2)cc1
  -1.5%	/	-2.8%	/
> CCCC(CNC(=O)COC(=O)C1=NNC(=O)CC1)c1ccc(Cl)cc1Cl (centres undefined)
  3.3%	/	-7.9%	/
> Cc1cc2ncn(S(=O)(=O)N3CCOCC3)c2cc1C
  1.0%	6.0	7.0%	-1.2%
> Cc1ccccc1C(=O)N1CCC(C(=O)NCCc2ccc(S(N)(=O)=O)cc2)CC1
  3.8%	/	-13.6%	-0.3%
> Cc1c(N=Cc2ccc(-c3ccc(Cl)cc3)o2)c(=O)n(-c2ccccc2)n1C
  -1.5%	-1.4	-4.5%	-3.6%
> Fc1ccc(Oc2ccc3nnc(C(F)(F)F)n3n2)cc1
  0.6%	-2.3	12.0%	-10.0%
> COc1ccc(C(C(=O)NC2CCCC2)N(C(=O)CNC(=O)c2ccco2)c2cccnc2)cc1 (centres undefined)
  -0.3%	/	3.1%	-2.7%
> CCCN1C(=O)C(NC(C)=O)c2cc(OC)ccc21 (centres undefined)
  0.2%	3.8	6.4%	0.6%
> O=C(NCc1ccccc1F)C1CCCN(C(=O)Nc2ccc(F)cc2)C1 (centres undefined)
  -3.3%	/	2.0%	20.5%
> O=C1/C(=C/c2ccccc2F)SC(=S)N1CCC(=O)N1CCCCC1CCO (centres undefined)
  -2.6%	/	-4.1%	13.1%
> COc1cc(NC(=O)c2cc([N+](=O)[O-])ccc2NC(=O)CN2CCN(c3ccccn3)CC2)cc(OC)c1
  2.7%	/	4.3%	-1.0%
> COc1ccc(/C=N/NC(=O)c2ccc(COc3ccccc3Cl)o2)c(OC)c1C
  -1.5%	-0.7	1.0%	-14.5%
> COC(=O)COc1ccc(Oc2nc(SC)nc(N(C)C)n2)nn1
  0.4%	7.8	2.0%	-3.8%
> CCCCCC(=O)Nc1ccccc1N1CCOCC1
  4.2%	-4.4	2.9%	-16.3%
> O=C1OCCC1Sc1nc2ccccc2c(=O)n1-c1ccc(F)cc1 (centres undefined)
  0.7%	6.5	9.3%	-10.6%
> COc1ccc(NC2CCCN(C(=O)c3ccc4nccnc4c3)C2)cc1OC (centres undefined)
  0.3%	/	-8.3%	1.6%
> CCN(Cc1ccncc1)C(=O)C(CO)c1ccccc1 (centres undefined)
  -0.4%	-8.6&6.3	1.1%	0.9%
> CC(=O)c1nn(-c2cccc(Br)c2)cc1C(=O)c1ccco1
  -1.0%	1.9	4.8%	-3.4%
> COc1ccccc1C(=O)N/C(=C\c1ccc2c(c1)OCO2)C(=O)NCCc1nc2ccccc2[nH]1
  -1.8%	-7.8	1.0%	-2.2%

More records follow.
Order of values – Rango-impB inh	GLA inh pH 4.5	Rango release inh	miR-21 FLuc
> O=C(Cn1c(=O)cnc2ccccc21)Nc1ccccc1N1CCOCC1
  -1.7%	/	2.1%	-9.8%
> O=S(=O)(N/N=C1\CC(c2ccccc2)Oc2ccccc21)c1ccccc1 (centres undefined)
  -3.9%	13.7	21.6%	-4.7%
> CCOC(=O)c1[nH]ncc1[C@@H]1C[C@H]2CN(Cc3cccc(Cl)c3)C(=O)[C@]23CCCN13
  -1.3%	-1.1	-18.6%	-0.2%
> COc1ccc(NC(=O)COC(=O)c2ccc3c(c2)OCO3)c(OC)c1
  3.1%	/	-13.6%	/
> CCOC(=O)C1CCCN(c2c(NCCc3ccc(C)cc3)c(=O)c2=O)C1 (centres undefined)
  3.4%	-2.5	0.8%	0.3%
> Cc1sc2c(c1C)c(=O)n(-c1cccc(C(F)(F)F)c1)c(=O)n2CC(=O)NCc1ccco1
  1.9%	7.7	0.5%	-1.6%
> COCCCNc1nc2ccccc2nc1NS(=O)(=O)c1ccc(F)cc1
  1.5%	/	3.4%	-1.1%
> CCN1CCN(c2nc(C)c3c(n2)CCCC3=O)CC1
  -2.5%	-0.8	31.8%	-1.7%
> CC1CCN(C(=O)COC(=O)C(C)N2C(=O)c3ccccc3C2=O)CC1 (centres undefined)
  -0.2%	/	-6.5%	/
> COc1ccc(N2CCN(C(=O)NCc3ccc(OC)c(Cl)c3)CC2)cc1
  -1.2%	6.2	-1.1%	0.0%
> C=CC[C@@H](Cc1ccc(F)cc1)C(=O)OC[C@H]1CCCN1C(=O)[C@@H](CC=C)CC(=O)N[C@H](CO)Cc1ccccc1
  -1.8%	/	-6.3%	/
> CSCCC(NS(=O)(=O)c1ccc(C)c(C(=O)O)c1)C(=O)O (centres undefined)
  -0.2%	7.8	12.4%	1.1%
> N/C(=N\OC(=O)c1ccc([N+](=O)[O-])cc1)c1ccc(Br)cc1
  -0.6%	/	19.4%	-5.5%
> CCCS(=O)(=O)Nc1cccc(-c2ccc3nnc(C)n3n2)c1
  0.4%	-10.7	21.1%	-1.7%
> Cc1ccc(C(=O)OCC(=O)N(C)C2CCS(=O)(=O)C2)cc1[N+](=O)[O-] (centres undefined)
  -1.1%	5.2	9.5%	-2.8%
> COc1ccc(Cn2c(=O)cc(N)n(-c3ccccc3C)c2=O)cc1
  -2.5%	-1.6	1.2%	23.2%
> O=C(Cn1cnc2c(nnn2Cc2ccc(F)cc2)c1=O)OCc1ccccc1
  0.1%	2.9	-11.5%	-1.5%
> Cc1ccc(NC(=O)CCn2c(=O)[nH]c3ccsc3c2=O)cc1C
  3.5%	/	-23.3%	-11.8%
> CC(C)c1ccc(OCC(=O)NCc2ccco2)cc1
  -3.8%	-1.1	?	0.9%
> Cc1cccc(-n2nnc(C(=O)NC3CCCc4ccccc43)c2N)c1 (centres undefined)
  -3.5%	2.9	-10.8%	14.1%
> CCOC(=O)/C=C/C(=O)Nc1nccs1
  0.4%	-7.3	9.7%	7.4%
> COc1ccccc1NC(=O)c1ccc(S(=O)(=O)N(C)c2ccccc2OC)cc1
  -0.1%	/	18.0%	/
> O=C(NCCc1ccccc1)C1CCN(C(=O)c2ccc([N+](=O)[O-])cc2)CC1
  0.4%	-0.3	-0.3%	-0.5%
> CN(C)S(=O)(=O)c1cc(NC(=O)COC(=O)CCSc2ccc(Cl)cc2)ccc1Cl
  ?	-7.0	2.2%	2.1%
> Cc1ccc(CN(Cc2cccnc2)C(=S)Nc2cccc(Cl)c2C)cc1
  0.4%	-3.4	1.5%	5.4%
> NS(=O)(=O)c1ccc(N2N=C(c3ccccc3)CC2c2ccc(F)cc2)cc1 (centres undefined)
  ?	?	0.9%	20.4%
> O=C(CSc1nnc(-c2ccc(C(F)(F)F)cn2)s1)c1ccccc1
  2.9%	-13.4	9.6%	-0.1%
> COc1cc2cc(CCCOC(=O)CCCC(=O)O)oc(=O)c2cc1OC
  -2.5%	/	-2.8%	/
> Cc1ccc(NC(=O)C(=O)NCC2CCCO2)cc1 (centres undefined)
  2.2%	2.5	14.5%	-48.6%
